# Source: PubChem BioAssay (National Center for Advancing Translational Sciences (NCATS))
# HPGD block – inhibitors of human 15-hydroxyprostaglandin dehydrogenase (HPGD). P15428. purified HPGD, NADH fluorescence kinetic, PGE2 substrate. Potency, µM, inactives show at the highest dose activity change, negative = inhibition, hits mostly inhibitors. hit rate 4.3% among 150,000. AID 894; active = well fitted inhibition curve with a large enough effect (not every such curve was filed as active); inconclusive = small, poorly fitted or top-dose-only effect, or another doubt; inactive = no such curve, though single readings can be large or run the other way;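 also: top concentration of the series not given in the record; plate controls included wells without enzyme; inactives centre near -10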
# Target sequence (P15428 whole entry, looked up): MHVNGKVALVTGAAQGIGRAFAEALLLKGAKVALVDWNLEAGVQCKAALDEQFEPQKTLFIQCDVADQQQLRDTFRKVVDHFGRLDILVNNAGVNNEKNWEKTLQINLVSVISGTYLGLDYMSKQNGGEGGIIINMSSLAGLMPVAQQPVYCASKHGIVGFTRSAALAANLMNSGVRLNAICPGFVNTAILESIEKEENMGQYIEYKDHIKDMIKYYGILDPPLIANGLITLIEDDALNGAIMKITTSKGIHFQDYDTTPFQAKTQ
#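 20 nM HPGD preincubated 15 min at room temperature with compound in 50 mM Tris-HCl pH 8, 0.01% Tween 20. Started with 1 mM NAD+ and 30 uM prostaglandin E2; NADH fluorescence (360/450 nm) read 5 times over 30-s intervals, last minus first.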
# * hit, by the source's call; ? = inconclusive; & = joins results of further samples; ! = not active in a repeat. % is scaled to controls: 0 for no effect and ±100 for the full control effect; potency is read from the fitted curve at half-maximal effect. Not all compounds are listed (hit frequency here may not be typical).
compound,HPGD block
COC(=O)C1C2c3ccccc3OC1(C)N=c1s/c(=C/c3cnn(C)c3C)c(=O)n12 (stereo not given),-12%
CCCCn1c(O)c(C=NCCCn2ccnc2)c(=O)[nH]c1=O,-14%
CCCCn1c(O)c(C(CC)=NCc2cccnc2)c(=O)[nH]c1=O,-15%
O=[N+]([O-])c1cc([As](=O)(O)O)ccc1O,-13%&-7%
C1C[C@@H]2CN(CCCN3CCOCC3)[C@@H](C1)O2,-4%
FC(F)(F)c1ccc2c(c1)nnn2C1CCN(Cc2nnnn2Cc2ccccc2)CC1,-13%
CC(=O)OCC1=C(C(=O)O)N2C(=O)C(NC(=O)CCCC(N)C(=O)O)C2SC1 (stereo not given),-17%
Cc1occc1C(=O)N1CCC2(CC1)OCCO2,-17%
c1ccc(-c2ccccc2)cc1,-13%
CCCCC/C=C\C/C=C\C/C=C\C/C=C\CCCC(=O)Nc1ccc(O)cc1,35µM*

# Three successive compounds out of the list so far, for reference:
compound,HPGD block
Cc1occc1C(=O)N1CCC2(CC1)OCCO2,-17%
c1ccc(-c2ccccc2)cc1,-13%
CCCCC/C=C\C/C=C\C/C=C\C/C=C\CCCC(=O)Nc1ccc(O)cc1,35µM*

# (list continues)
compound,HPGD block
CCCCn1c(O)c(C(CC)=NCCCN(C)C)c(=O)[nH]c1=O,1%
COC1=CC23CCCN2CCc2cc4c(cc2C3C1O)OCO4 (stereo not given),-14%
Cc1cccc(N2C(=O)/C(=C/c3ccc(CN(CCC#N)S(C)(=O)=O)o3)C(=O)NC2=S)c1,22µM*
CN1CCc2cccc(Cl)c2CC1,-10%
Cn1c2c(c3ccccc31)CCNCC2,-27%
CCCCCCOc1ccc(CN2CCN(CC)CC2)cc1,-7%
CC(C)(C)N1Cc2ccccc2C1=N,-10%
CCC(COC(=O)NC)NC(=O)Oc1cccc(C)c1 (stereo not given),-9%
COc1ccccc1C1=NCc2nnc(C)n2-c2ccc(Cl)cc21,28µM*
O=C(Nc1cccc(OC(=O)N2CCOCC2)c1)N1CCOCC1,-5%
CCCN1C2CCCC1CC(NC(C)=O)C2 (stereo not given),-3%
N#CC(Br)Br,-24%
CC(C)(OO)c1ccccc1,-2%
Cc1ccc2c(c1)=C/C(=C\c1c(O)[nH]c(=S)[nH]c1=O)C(=O)N=2,-15%
Cn1nc(N)c2c1N=P(N1CCOCC1)(N1CCOCC1)N=C2c1ccccc1,-10%
CN1C(=O)C(C2(C#N)CCCCC2)C(=O)N(C)C1=O,3%
CCn1c(O)c(/C(C)=N/N2CCCCC2c2cccnc2)c(=O)[nH]c1=S (stereo not given),-2%
Cc1cccc(CN2CCN(Cc3ccc(Cl)cc3)CC2)c1,-10%
O=C(COC(=O)Cc1ccccc1)Nc1ccc(SC(F)F)cc1,-8%
CC1CN=C(Nc2ccccc2)S1 (stereo not given),8.9µM*
COc1cc(/C=C2/C(=O)NC(=O)N(c3ccccc3)C2=O)ccc1O,?
O=C(Cc1ccccc1)OCCNC(=O)c1cccnc1,-3%
CC1=CC(=O)NP(=O)(Oc2ccc3ccccc3c2)N1 (stereo not given),35µM*
CN1CCC2=C[C@@H](O)[C@@H]3OC(=O)c4cc5c(cc4C3C21)OCO5 (stereo not given in full),-11%
CCN(CC)C(=O)c1ccc(N2C(=O)C3CC=C(Cl)CC3C2=O)cc1 (stereo not given),13µM*
CCCC1=C(C(=O)OCC)C2(C(=O)Nc3ccc(C)cc32)C(C#N)=C(N)O1 (stereo not given),-1%
CCOC(=O)c1c(N)n(CCN2CCCCC2)c2nc3ccccc3nc12,?
O=C(CSc1ccccc1)N1CCC2(CC1)OCCO2,1%
COc1cc2ccccc2c2cc([N+](=O)[O-])oc12,-9%
CCC(=Nc1ccccc1NC(C)=O)c1c(O)n(C)c(=O)n(C)c1=O,-10%

# Shown with each value named: 2 of the compounds above
smiles: CCOC(=O)c1c(N)n(CCN2CCCCC2)c2nc3ccccc3nc12
- HPGD block: ?
smiles: CCC(=Nc1ccccc1NC(C)=O)c1c(O)n(C)c(=O)n(C)c1=O
- HPGD block: -10%

# Further results:
compound,HPGD block
COc1cc2c(cc1O)C[C@H]1c3c(cc(O)c(OC)c3-2)CCN1C,?
BrCC(Br)(Br)Br,-13%
CCCN(CCC)[C@@H]1CCc2c(F)ccc(O)c2C1,-16%
COc1cccc(Oc2c(C)oc3cc(OC(=O)N(C)C)ccc3c2=O)c1,-18%
CN(C)c1ccc(N=Cc2c(O)n(CCC3=CCCCC3)c(=O)[nH]c2=O)cc1,-8%
c1ccc(Cn2ccnc2)cc1,-5%
COC(=O)C(O)(c1ccc(NC(=S)NC(=O)c2ccccc2)cc1)C(F)(F)F (stereo not given),-6%
CC1(C)CC(=O)C2=C(C1)NC(=O)C21C(C(=O)OC(C)(C)C)=C(N)Oc2ccc(Br)cc21 (stereo not given),-1%
Cc1noc(C)c1CSc1nc2cc(S(=O)(=O)N3CCOCC3)ccc2o1,7.9µM*
Nc1c2c(nc3sc4c(c13)CCCC4)CCCCC2,-12%
CCCCC/C=C\C/C=C\C/C=C\C/C=C\CCCC(=O)OC(CO)CO,28µM*!
O=C(Cl)/C=C/C(=O)Cl,-1%
C=CCn1c(O)c(C(C)=Nc2ccc(N(C)C)cc2)c(=O)[nH]c1=O,-7%
CC(Oc1ccc(-c2ccccc2)cc1)C(=O)O (stereo not given),-13%
Fc1cccc(CCNCc2ccccn2)c1,2%
CCn1nc(-c2ccccc2)nc2c(=O)n(C)c(=O)nc1-2,-14%
c1ccc(CN2CC[C@@]3(CCCNC3)C2)cc1,-1%
O=C1C=CC(=O)C(Cl)=C1,1µM*
O=C(O)c1ccc2[nH]cc(CCCCN3CC=C(c4ccccc4)CC3)c2c1,-16%
COc1ccc(/C=C/C(=O)N2CC3C[C@@H](C2)Cn2c3cccc2=O)cc1OC,?
CNCC[C@H](Oc1ccc(C(F)(F)F)cc1)c1ccccc1,-4%&-8%&-9%
O=P(NS(=O)(=O)c1ccccc1)(Oc1ccccc1)Oc1ccccc1,0%
Cc1cc(C)cc(OP(=O)(Oc2cc(C)cc(C)c2)Oc2cc(C)cc(C)c2)c1,-14%
O=C1C=C2C=C[C@@H]3C[C@@]2(O1)[C@H]1CCCCN31,0%&-10%
Clc1ccc(Cl)c(Cl)c1,-4%
Cc1ccc2c(c1)CNc1ccccc1O2,-29%
NCC(=O)c1ccccc1,-7%
CCC(C)N1C(=O)/C(=C/c2ccc3c(c2)CCN3CCCCl)C(=O)NC1=S (stereo not given),25µM*
c1ccc(CCN2CCOCC2)nc1,-2%
N/C(=N\N=C/c1ccc(-c2ccc(O)c(C(=O)O)c2)o1)N[N+](=O)[O-],7.1µM*
Nc1nc2c(ncn2[C@@H]2O[C@H](CO)[C@@H](O)[C@@H]2O)c(=[SH+])[nH]1.O=[N+]([O-])c1ccc(O)[c]([Hg])c1,0.025µM*
CCCOc1ccc2[nH]cc(C3=CCNCC3)c2n1,?
O=c1[nH]c(=O)n(-c2ccc(F)cc2)c(O)c1C=Nc1ccccc1N1CCCC1,-12%
Cc1ccc(C(=O)Nc2ccc(-n3ccnc3P(=O)(O)c3ccccc3)cc2)cc1,-5%
O=[N+]([O-])c1ccc(Cl)cc1,-4%
CC1CCN(S(=O)(=O)c2ccc(NN=C(C#N)C#N)cc2)CC1,-22%
COc1cccc(-n2c(O)c(C=NCc3ccc4c(c3)OCO4)c(=O)[nH]c2=O)c1,-10%
CCOC(=O)c1c(-n2c(C)cc(/C=C3\C(=O)NC(=O)N(C)C3=O)c2C)sc2c1CCCC2,?
CCOS(C)(=O)=O,-4%
CN1c2ccccc2Oc2ccccc21,-11%
O=C1c2ccccc2C(=O)N1SC1CCCCC1,2.2µM*
CC1(C)C(=O)[C@@H]2OC2[C@@]2(C)C1CC(O)[C@]1(C)C2CC[C@@]2(C)C(c3ccoc3)OC(=O)C3OC312 (stereo not given in full),-8%
COc1c2c(cc3c1OCO3)CCN(C)C2,-4%
O=C1NCN(c2ccccc2)C12CCN(CC1COc3ccccc3O1)CC2 (stereo not given),-10%
C[C@@]12CCC3C(CC[C@@H]4CC(O)CC[C@@]34C)C1CCC2O (stereo not given in full),-3%
CCOc1ccccc1-n1c(O)c(C=Nc2ccc(N(CC)CC)cc2)c(=O)[nH]c1=O,-24%
CC(C)Oc1cccc(NC(=O)c2cccn(Cc3ccc4c(c3)OC(F)(F)O4)c2=O)c1,-12%
CC(NC(C)(C)C)C(=O)c1cccc(Cl)c1 (stereo not given),-8%&-12%&-7%
COCc1c(CN)cnc(C)c1N,-11%
COc1ccc(CCN(C)Cc2ccncc2)cc1OC,-8%

# New compounds follow:
compound,HPGD block
OCCOCC#CCN1CCOCC1,-3%
COCCNP(=O)(c1ccccc1)c1nc2ccccc2s1 (stereo not given),4%
COC(=O)COc1ccc(Cl)cc1Cl,-22%
CCOP(=O)(OCC)c1nc(-c2ccc(C)cc2)oc1NCc1ccccc1,?
CCOC(=O)N(CC)c1ccc(C(O)(C(=O)OC)C(F)(F)F)cc1 (stereo not given),-4%
O=NN(CCO)CCO,-7%
CCCc1cc2c(n1Cc1cccc(Cl)c1)C(C)C1CN(C(=O)c3ccccc3)C(C)(C(=O)OC)C21 (stereo not given),?
CC1CC(C)CN(CC(=O)c2ccc(OC(F)F)cc2)C1 (stereo not given),-9%
Cc1ccc(-c2nn(Cc3ccccc3)cc2C=O)cc1,-14%
O=c1[nH]c(O)c(C=NC2CCN(Cc3ccccc3)CC2)c(=O)[nH]1,-12%
COc1ccc(-n2c(SC)nc3ccccc3c2=O)cc1,1%
CC(=O)[O-].CC(=O)[O-].CC(=O)[O-].[Cr+3],-7%
COCCCn1c(N)c(C(=O)Nc2sc3c(c2C(=O)OC)CCCC3)c2nc3ccccc3nc21,-12%
O=C(NCC(c1cccnc1)N1CCN(c2ccc(F)cc2)CC1)Oc1ccccc1 (stereo not given),-27%
CC1(C(=O)O)C2CCC(O2)C1(C)C(=O)O (stereo not given),-4%
CC1=NN(c2ccccc2)C(=O)C1/C=C1\C(=O)NC(=O)N(c2ccc(C)c(C)c2)C1=O (stereo not given),-21%
Cc1ccc(C(=O)C2CN3CCC2CC3)cc1 (stereo not given),-10%
O=C(O)[C@H]1[C@H]2CN[C@H](C(=O)O)[C@H]21,-3%
S=P(C1CCCCC1)(C1CCCCC1)[C@H](c1cccnc1)N1CCCC1,2%
O=C(O)C[C@H]1OCC=C2CN3CC[C@@]45C6=CC(=O)C(=O)C([N+](=O)[O-])=C6N[C@H]4[C@H]1[C@H]2C[C@@H]35,-5%
Nc1ccc([N+](=O)[O-])cc1,-4%
O=S(=O)(O)F,-23%
CCc1ccc(-n2c(O)c(/C=N/N3CCCCC3c3cccnc3)c(=O)[nH]c2=O)cc1 (stereo not given),-16%
Cc1cccc(C)c1N,-3%
COC(=O)C1=Nc2ccccc2/C1=C\c1c(O)n(-c2cc(OC)ccc2OC)c(=O)[nH]c1=O,14µM*
COc1ccccc1N1CCN(Cc2ccc(Br)s2)CC1,-15%
Cc1ccc2ccccc2c1NC(=O)CNC1CCCCC1,-8%
C/C=C1\C[N@@+]2(C)CC[C@@]34C(=C(C=O)[C@H]1C[C@H]32)Nc1ccccc14,16µM*
CCN1CCN(C(=O)COc2ccc(S(=O)(=O)N(C)Cc3ccccc3)cc2)CC1,-25%
COc1ccc(OCC(=O)N2CCN(C(C)C)CC2)cc1,-10%

# Structures from the list above that contain a furan ring, fused or not (5):
compound,HPGD block
Cc1occc1C(=O)N1CCC2(CC1)OCCO2,-17%
Cc1cccc(N2C(=O)/C(=C/c3ccc(CN(CCC#N)S(C)(=O)=O)o3)C(=O)NC2=S)c1,22µM*
COc1cc2ccccc2c2cc([N+](=O)[O-])oc12,-9%
N/C(=N\N=C/c1ccc(-c2ccc(O)c(C(=O)O)c2)o1)N[N+](=O)[O-],7.1µM*
CC1(C)C(=O)[C@@H]2OC2[C@@]2(C)C1CC(O)[C@]1(C)C2CC[C@@]2(C)C(c3ccoc3)OC(=O)C3OC312 (stereo not given in full),-8%

# Remaining list, next part:
compound,HPGD block
CCCCNC(=O)n1c(NC(=O)OC)nc2ccccc21,-6%
CC[n+]1c(/C=C/N(C)c2ccccc2)sc2ccc(Cl)cc21,-23%
Cc1cc(OCC(=O)NC2CCS(=O)(=O)C2)c2c3c(c(=O)oc2c1)CCC3 (stereo not given),?
CN1CCN(c2ccc(N)c(N3CCN(C)CC3)c2)CC1,-9%
Cc1ccc(-c2nc3ccccc3c(=O)n2-n2cccc2)cc1,-3%
O=C(CN1CCCCC1)c1ccc(OC(F)F)cc1,-3%
O=C1NC(=O)N(Cc2ccco2)C(=O)/C1=C\c1cccn1CCOc1ccc(Cl)cc1,-22%
CC(C)Oc1cccnc1N(C)C1CCN(Cc2ccccc2)CC1,?
O=c1[nH]c(=O)n(Cc2ccco2)c(O)c1C=NCc1ccc2c(c1)OCO2,-21%
CCOC(=O)C(O)(c1ccc(NC(=O)NC2CCCCC2)cc1)C(F)(F)F (stereo not given),-8%
CN1CCC(O)(c2ccccc2)C(C(=O)c2ccccc2)C1 (stereo not given),-4%
CCC(=O)N1CC(=O)Nc2ccc(Cl)cc2C1c1ccc(F)cc1 (stereo not given),3%
Nc1ccc(N)cc1,-13%
CC1(C)C[C@H]2C=C(C=O)[C@]3(C=O)C[C@]3(C)[C@H]2C1,-14%
